Compound activity from PubChem BioAssay.
VACV Venus inh: inhibitors of vaccinia virus (Venus reporter); Vaccinia virus Venus reporter expression, fluorescence; Potency, µM (titrated, usually from 36.5 µM), for the others: at the top dose activity change, negative = inhibition, most hits filed as inhibitors; actives 0.46% (n = 330,000); AID 720580; active means well fitted inhibition curve with a large enough effect; inconclusive means small, poorly fitted or top-dose-only effect; inactive means no such curve, though single readings can be large or run the other way; tested in A549 cells; also: nearly all actives have a fitted effect of over 30% in size; inactives centre near -10
VACV mCherry inh: inhibitors of vaccinia virus infection (mCherry reporter signal); Vaccinia virus mCherry reporter infection, fluorescence; about a quarter of the inactives have no number; Potency, µM (top dose mostly 36.5 µM), without a hit: at the top dose activity change, negative = inhibition, hits mostly inhibitors; actives 0.63% (n = 310,000); AID 720579; active = well fitted inhibition curve with a large enough effect; inconclusive = small, poorly fitted or top-dose-only effect; inactive = no such curve, though single readings can be large or run the other way; tested in A549 cells; also: nearly all actives have a fitted effect of over 35% in size; inactives centre near -10
* marks the source's active call; other numbers are inactive results; i = inactive; ? = inconclusive; nt = not tested or not shown; & = joins results of further samples; [ ] = dose if it differs, or a comment. % is scaled to controls: 0 for no effect and ±100 for the full control effect; potency is read from the fitted curve at half-maximal effect.

Results follow in this order: VACV Venus inh | VACV mCherry inh
- COc1cccc(NC(=O)COc2cc(O)c3c(c2)OC(C)(C)CC3=O)c1
  -10% | -1%
- COc1ccc(CNc2nccn3ccnc23)cc1
  10% | 8%
- Cc1ccc(S(=O)(=O)N2[C@@H](c3cccc(C)c3)C(C(=O)O)=C[C@H]2CC2CCCC2)cc1
  1% | -10%
- CCOc1ccc(C(CC(=O)Nc2ccc(C(=O)OC)cc2)N2Cc3ccccc3C2=O)cc1OC (centres undefined)
  1% | 7%
- COc1cccc(C2CC(=O)Nc3cc4c(cc32)OCCO4)c1OC(C)C (centres undefined)
  -23% | -2%
- COc1ccc(NC(=O)C2=CC(c3cccs3)=NS(=O)(=O)N2C)cc1
  -18%&-10% | -7%
- Cc1ccc(NC2C(=O)NC(=O)NC2=O)cc1
  -17% | -18%
- O=C(CCNS(=O)(=O)c1cccs1)Nc1nccs1
  -22% | -11%
- O=C(NCCO[N+](=O)[O-])c1cccnc1
  -9% | i
- CCc1sc(C(=O)NNC(=O)c2cncc(Br)c2)cc1C
  -5% | -7%
- COc1cccc(OC)c1-c1cnc(NC(C)=O)cn1
  -2% | 1%
- O[C@H]1CN(CC2CCCCC2)[C@@H](c2ccccc2)C[C@@H]1n1cc(C2CC2)nn1
  -7% | -23%
- C=CCn1cc(F)c(=O)n(CC=C)c1=O
  -8% | -25%
- Cc1nnc(NC(=O)c2c(F)cccc2F)s1
  -16% | i
- Cc1ccc(NC(=O)C2CC(=O)Nc3ncnn32)cc1Cl (centres undefined)
  -25% | -12%
- CCCCCCOc1ccc(N2C(=O)CC(SCCN)C2=O)cc1 (centres undefined)
  -9% | i
- COC(=O)C1=C(C)N(c2cccc(C)c2)C(=O)/C1=C\c1cccs1
  6% | nt
- O=C(NCCc1cccc(Cl)c1)c1cccc([N+](=O)[O-])c1
  -17% | i
- Cc1cc(C(=O)CSc2cccc[n+]2[O-])c(C)n1-c1ccccc1
  -17% | -14%
- COC(=O)C1=C(c2ccc(OC(F)(F)F)cc2)C[C@@H]2CC[C@H]1N2C(=O)NCCc1ccccc1
  ? | ?
- COC(=O)C(CCSC)NC(=O)Cn1ncc2c(=O)oc3ccccc3c21 (centres undefined)
  6% | -12%
- COc1ccc(-c2csc(C(C)(O)c3cccc(F)c3)n2)cc1 (centres undefined)
  -5% | i
- Cc1ccc(OCC(=O)N/N=C/c2ccncc2)cc1
  -1% | i
- Cc1c(C(=O)c2no[n+]([O-])c2C(=O)c2cnn(C)c2C)cnn1C
  -13% | -16%[1.46 µM]
- CC(=O)c1ccc(NC(=O)c2cc(Cl)sc2Cl)cc1
  -5% | -13%
- COc1ccccc1N1CCN(C(=O)c2oc3cc(C)c(C)cc3c2C)CC1
  -17% | nt
- Cc1ccccc1COc1ccc(-c2nn[nH]n2)cc1
  -11% | -18%
- Cc1c(Cl)cccc1-n1nnnc1-c1cccs1
  -16% | -12%
- C/C(=N/N1CCN(Cc2cccc3ccccc23)CC1)c1ccco1
  -10% | -24%
- CCN(CC)CCn1c(NCc2cccc(OC)c2OC)nc2ccccc21
  -18% | nt
- Cc1ccc(NC(=O)CCC(=O)NNC(=O)NC23CC4CC(CC(C4)C2)C3)cc1C
  -19% | -6%
- CCCSc1nc(C)c(-c2csc(C(C#N)=C3CCCC3)n2)cc1C#N
  4% | -6%
- C[C@H](CO)N1C[C@H](C)[C@@H](CN(C)Cc2ccncc2)Oc2c(NC(=O)CCC(F)(F)F)cccc2C1=O
  -3% | -9%
- O=c1cc(-c2ccccc2)n2c(SCc3c(F)cccc3Cl)nnc2[nH]1
  -9% | -2%
- O=C(COc1coc(CN2CCN(c3cccc(Cl)c3)CC2)cc1=O)NC1CCCC1
  -15% | -6%
- Fc1cccc(CSc2nc(NCCc3ccccc3)c3ccccc3n2)c1
  -14% | -14%
- CCOC(=O)C1CCN(c2cc3c(cc2NC(=O)c2ccccc2F)n(C)c(=O)n3C)CC1
  -6% | i
- Cc1cc(C)cc(N(CC(=O)NCc2ccco2)S(=O)(=O)c2ccccc2)c1
  -7% | -9%
- O=C(Nc1ccc(F)cc1)OC1CN2CCC1CC2 (centres undefined)
  -5%[7.34 µM] | -18%[7.34 µM]
- C=CCNC(=O)C1CCN(c2ccc(S(=O)(=O)N3CCOCC3)cc2Cl)CC1
  -12% | -6%
- COC(=O)c1ccccc1NC(=S)NC(=O)COc1ccccc1Cl
  -15% | -9%
- Cc1cc(C(=O)NCC2CCC3(CCN(Cc4ccc(-c5ccccc5)cc4)CC3)O2)n(C)n1 (centres undefined)
  -15% | -20%
- COC(=O)c1ccc2c(=O)n(CC3CCCO3)c(SCC(=O)NCCc3ccc(S(N)(=O)=O)cc3)nc2c1 (centres undefined)
  0% | i
- O=C(NCCC(NS(=O)(=O)OCC(Cl)(Cl)Cl)c1ccccc1)C(F)(F)F (centres undefined)
  -19% | ?
- Nc1nc2c(ncn2COCCO)c(=O)[nH]1
  -12%&-10%&-12% | -2%&28%
- CCSc1nnc(NC(=O)[C@@H](NC(=O)c2ccc(C(C)(C)C)cc2)C(C)C)s1
  -25% | -22%
- COCCCN(C(=O)CSc1nc2ccccc2c(=O)n1C)c1c(N)n(Cc2ccccc2)c(=O)[nH]c1=O
  0% | -13%
- C#CCOCCOCCOCCNc1nc(N2CCN(C(=O)Cn3cc(CCO)nn3)CC2)nc(N2CCN(C(=O)[C@H](Cc3ccc(O)cc3)n3cc(CCO)nn3)CC2)n1
  1% | i
- CC(OC(=O)CCN1C(=O)C2CC=CCC2C1=O)C(=O)Nc1cccc(C#N)c1 (centres undefined)
  -15% | -18%
- COc1cccc(C(=O)Nc2cccc3ccccc23)c1
  12% | -5%
- Cc1ccc(-c2cc(C(=O)Nc3cc(C(=O)O)ccc3C)c3ccccc3n2)cc1
  -1% | 3%
- COc1ccc2c(CN3CC=C(c4ccccc4)CC3)cc(=O)oc2c1
  -18% | -27%
- O=C(COc1cc([N+](=O)[O-])cc2cccnc12)NCCC1=CCCCC1
  4% | ?
- CC(C)OP(=O)(OC(C)C)C(O)c1ccccc1F (centres undefined)
  -8% | -14%
- Cc1noc(C)c1C(=O)N1CCN(S(=O)(=O)c2ccc(F)cc2)CC1
  -2% | i
- COc1ccc(CCNC(=O)CCS(=O)(=O)c2cc(Br)cc3c2N(C(C)=O)CC3)cc1OC
  -6% | -13%
- CON(C)S(=O)(=O)c1ccc2c(c1)NC(=O)C1CCCN21 (centres undefined)
  -9% | -9%
- COc1ccc(C(=O)Nc2cc(-c3ccccc3)nn2-c2ccccc2F)cc1
  ? | -18%
- CCOc1nc(-c2ccccc2)ccc1-c1noc(-c2cccnc2)n1
  -12% | i
- NC(=O)C1CCN(C(=O)c2ccc(Cl)c(NC(=O)c3cccs3)c2)CC1
  -12% | i

Following part
Results follow in this order: VACV Venus inh | VACV mCherry inh
- Cc1cc(C)c(SSc2nnnn2-c2ccccc2)c(C)c1
  -4% | 6%
- O=C(Cn1c2ncccc2c(=O)n1-c1ccccc1)Nc1ccc(F)c(F)c1
  -3% | -20%
- Cc1ccc(OCc2nnn(CC(=O)NS(=O)(=O)c3c(C)noc3C)c2-c2ccccc2)cc1
  -3% | -9%
- CCCCc1ccc(NC(=O)N[C@H](C(=O)O)C(C)CC)cc1 (some centres undefined)
  -29% | nt
- COc1ccc(OC)c(C2CC(=O)OC3=C2C(=O)CC(C)(C)C3)c1 (centres undefined)
  -9% | -2%
- CN(C(=O)C1CCC(=O)N(CCCN2CCCC2=O)C1)C(C1CC1)C1CC1 (centres undefined)
  -10% | -18%
- CC(C)CC(=O)N1CCN(C(=O)c2cccc(F)c2)CC1
  -16% | nt
- CCCCN(C)CCC(=O)Nc1ccc2c(c1)CCC2
  -11% | ?
- O=C1Nc2ccccc2/C1=C/c1nc2ccccc2c(=O)n1-c1ccc(O)cc1
  -26% | -29%
- CC(=O)Nc1cc(S(=O)(=O)Nc2ccccc2)c(C)cc1C
  -8% | nt
- CCOC1=C/C(=C/c2c(N)n3nc(CC(=O)N4CCCCC4)sc3nc2=O)C=CC1=O
  6%[7.34 µM] | -17%[7.34 µM]
- CC(=O)c1c(N2CCCC2)[nH]c(-c2ccccc2)nc1=S
  -18% | -23%
- O=C(Nc1ccccc1C(=O)NCc1cccnc1)c1ccco1
  -6% | 0%
- COc1ccc(CNS(=O)(=O)NCc2ccccc2F)cc1
  -3% | -13%
- COc1ccc(-n2c(SCC(=O)N3CCC(C)CC3)nc3c([nH]c4ccccc43)c2=O)cc1
  2% | 6%
- CC(=O)NNC(=O)c1sc(=S)n(C)c1C
  -3% | -8%
- CCCn1c(N)c(N2CCCCC2)c(=O)n(CC(=O)Nc2ccccc2C)c1=O
  -20% | -1%[1.46 µM]
- O=C(COC(=O)COc1ccccc1)Nc1ccc(OC(F)(F)F)cc1
  -21% | -24%
- CC(=O)N(NC(=O)c1ccccc1Cl)C1CC(=O)N(c2ccc(C)cc2)C1=O (centres undefined)
  -11% | i
- COc1cccc(/C=C/c2ccc3ccccc3[n+]2C)c1OC
  -12% | -29%
- O=C(NCc1ccccc1)C(c1cccnc1)N(C(=O)c1csnn1)c1ccccc1 (centres undefined)
  -5% | -2%
- CC(C)(C)c1ccc(-n2ncc3c2CCCC3NC(=O)CCN2CCCCC2=O)cc1 (centres undefined)
  -25% | -28%
- CC(C)CCNC(=S)Nc1ccccn1
  -3% | -15%
- NC(=O)CSc1n[nH]c(=O)n1CCc1ccccc1
  -4% | -4%
- NC(=O)CNC(=O)C1CCCc2c1[nH]c1ccc(Cl)cc21 (centres undefined)
  -11% | -16%
- C#CCOCCOCCOCCNc1nc(N2CCN(C(=O)[C@H](CCC(=O)O)n3cc(C(N)Cc4ccc(O)cc4)nn3)CC2)nc(N2CCN(C(=O)[C@H](CCC(=O)O)n3cc(C(N)Cc4ccc(O)cc4)nn3)CC2)n1 (some centres undefined)
  0% | i
- CCN(CC)CCCN=Cc1c(O)n(-c2ccc(C)cc2)c(=O)c2ccccc12
  -21%[7.34 µM] | i[7.34 µM]
- O=C(C1CC(=O)N(c2ccc(F)cc2)C1)N1CCOCC1 (centres undefined)
  3% | -1%
- CCCN(CCC)CCNC(=O)Cn1cnc2sc(C)c(S(=O)(=O)N3CCOCC3)c2c1=O
  -2% | -11%
- CC(C)C[C@@H](CNCC(=O)[C@H](CC(C)C)NC(=O)c1[nH]cnc1C(=O)N[C@@H](C)CN)NC(=O)c1nc[nH]c1C(=O)N[C@@H](CC(=O)O)C(=O)O
  -2% | -11%
- COc1ccccc1CNC(=O)CN1C(=O)NC2(CCCCCC2)C1=O
  -16% | -20%
- Cc1cc(Cl)ccc1NC(=O)CN1C(=O)C(=O)c2ccccc21
  -5% | -7%
- O=C(C1COc2ccccc2O1)N1CCN(c2ccc(C(F)(F)F)cn2)CC1 (centres undefined)
  -14% | i
- CCCCn1c(C(C)O)nc2ccccc21 (centres undefined)
  -8% | i
- CCCS(=O)(=O)NC(=O)C1(C)CCCN(C(=O)c2ccccc2F)C1 (centres undefined)
  -7% | 3%
- COCCCN1CN=C(NS(=O)(=O)c2ccc(NC(C)=O)cc2)NC1
  -2% | -7%
- O=C(NC(=S)NC1CCCCCC1)c1cncc(Br)c1
  -11% | i
- COc1ccc(NC(=O)C[C@H]2C(=O)N(CCc3ccccc3)C[C@@H]2Cc2ccccc2)cc1
  -13% | -5%
- O=S(=O)(/C=C/c1ccccc1)Oc1ccccc1
  -13% | -13%
- COc1ccc(NC(=O)c2sc(=S)[nH]c2N)cc1
  4% | 2%
- COc1ccc(C(=O)NCC(=O)OCc2cc(=O)n3nc(C4CCCCC4)sc3n2)cc1
  8% | 4%
- COC(=O)C(NC(=O)c1ccccc1)=C1CCCCC1
  -25% | nt
- CCOC(=O)C1=C(CS(=O)(=O)c2ccc(F)c(C)c2)NC(=O)NC1c1ccc(O)c(O)c1 (centres undefined)
  -8% | i
- COCc1c(C(=O)NCC2CCCN(C)C2)cnn1-c1ncc2c(n1)-c1ccccc1CCC2 (centres undefined)
  -10% | i
- CCN(C(=O)CSc1nnc(-c2ccncc2)n1-c1ccccc1)C1CCS(=O)(=O)C1 (centres undefined)
  -3% | 2%
- O=c1c2ccccc2nnn1Cc1nnc(-c2ccccc2Br)o1
  1% | -11%
- CCCC12CN3CC(C)(CN(C1)C3c1ccc([N+](=O)[O-])o1)C2=O (centres undefined)
  -4% | -18%
- COc1ccc(C2C=C(c3ccccc3)Nc3nc(NS(=O)(=O)c4ccccc4)nn32)cc1 (centres undefined)
  -28% | ?

Full records, looked up by structure. Order of screens: VACV Venus inh | VACV mCherry inh
Record of CCCS(=O)(=O)NC(=O)C1(C)CCCN(C(=O)c2ccccc2F)C1 (centres undefined) = -7% | 3%
Record of CCCC12CN3CC(C)(CN(C1)C3c1ccc([N+](=O)[O-])o1)C2=O (centres undefined) = -4% | -18%
Record of O=S(=O)(/C=C/c1ccccc1)Oc1ccccc1 = -13% | -13%
Record of COCc1c(C(=O)NCC2CCCN(C)C2)cnn1-c1ncc2c(n1)-c1ccccc1CCC2 (centres undefined) = -10% | i
Record of CCN(C(=O)CSc1nnc(-c2ccncc2)n1-c1ccccc1)C1CCS(=O)(=O)C1 (centres undefined) = -3% | 2%

A draw from above in order of SMILES length, ascending:
Results follow in this order: VACV Venus inh | VACV mCherry inh
- O=C(NC(=S)NC1CCCCCC1)c1cncc(Br)c1
  -11% | i
- CCCS(=O)(=O)NC(=O)C1(C)CCCN(C(=O)c2ccccc2F)C1 (centres undefined)
  -7% | 3%
- CCN(C(=O)CSc1nnc(-c2ccncc2)n1-c1ccccc1)C1CCS(=O)(=O)C1 (centres undefined)
  -3% | 2%
